Compound activity (PubChem BioAssay)
hIAP act = human IAP activation; activation factor at 10 µM; P09923; purified human IAP, CDP-Star luminescence, 30 min; stronger effect = higher value; 1 = vehicle-only enzyme, 0 = enzyme-free background; AID 2524; 330,000 tested, 0.16% active;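 active = activation factor of the enzyme at least 2-fold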; also: the source names both 10 and 20 µM as test concentration; values of inactives mirror those of a sister screen read the other way
Target sequence (P09923 whole entry, looked up): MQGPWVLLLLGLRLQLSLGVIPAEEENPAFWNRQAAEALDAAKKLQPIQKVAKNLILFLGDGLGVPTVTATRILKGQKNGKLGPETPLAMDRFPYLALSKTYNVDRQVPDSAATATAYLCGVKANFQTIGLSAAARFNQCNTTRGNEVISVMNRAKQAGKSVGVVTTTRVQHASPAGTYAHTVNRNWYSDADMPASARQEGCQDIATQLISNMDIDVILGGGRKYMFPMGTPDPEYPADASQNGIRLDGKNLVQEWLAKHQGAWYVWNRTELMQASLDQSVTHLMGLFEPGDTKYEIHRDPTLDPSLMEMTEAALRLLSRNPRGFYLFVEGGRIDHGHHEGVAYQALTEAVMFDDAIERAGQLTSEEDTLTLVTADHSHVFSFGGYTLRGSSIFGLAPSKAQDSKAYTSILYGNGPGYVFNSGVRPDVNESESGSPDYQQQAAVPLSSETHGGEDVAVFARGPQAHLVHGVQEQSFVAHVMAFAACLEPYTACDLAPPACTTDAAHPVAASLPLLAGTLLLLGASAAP
hIAP block = blocks human intestinal alkaline phosphatase; purified IAP, CDP-Star luminescence, 30 min; 330,000 tested, 0.12% active; AID 2544; P09923; inhibition, % at 10 µM;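 active = inhibition reaching a set limit with compound at 10 µM in the primary screen, cut at about 35% in these data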;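 also: plate controls were DMSO wells with enzyme for no effect and no-enzyme buffer wells for full effect; values of inactives mirror those of a sister screen read the other way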
mIAP inh = mouse IAP inhibition | 330,000 tested, 0.2% active | inhibition, % at 10 µM | purified mouse IAP, CDP-Star luminescence, 30 min;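 active = inhibition of at least 40% at 10 µM in the primary screen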;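 also: plate controls were DMSO with enzyme for no effect and no enzyme wells for full effect; values of inactives mirror those of a sister screen read the other way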
mIAP activ = mouse IAP activation. activation factor at 10 µM. 330,000 tested, 0.24% active. muIAP, CDP-Star luminescence, 30 min; stronger effect = higher value; 1 = vehicle-only enzyme signal, 0 = enzyme-free wells;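 active = activation factor of at least 2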; also: the source names both 10 and 20 µM as test concentration; values of inactives mirror those of a sister screen read the other way
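System: Mouse IAP enzyme | Also added: CDP-Star substrate | Dosing: Compounds dispensed in DMSO | Schedule: 30 min enzyme-substrate-compound incubation at room temperature | Technique: Chemiluminescence readout | Control set: DMSO-only wells and no-enzyme negative control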
NALP3 yeast inh = inhibitors of NALP3 inflammasome in yeast; 330,000 tested, 0.39% active; AID 2825; inhibition, % at 10 µM; Yeast reconstituted NLRP3/ASC/caspase-1, beta-gal luminescence, 24 h;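 active = inhibition of 50% or more; inactive = inhibition below 50%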;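 also: plate controls were induced DMSO wells for no effect and uninduced yeast grown without galactose for full effect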
tim10-1 inh = inhibits growth of tim10-1 mutant yeast; S. cerevisiae tim10-1 ts strain growth, BacTiter-Glo, 24 h; inhibition, % at 20 µM; 330,000 tested, 2.2% active; AID 463190;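 active = inhibition of at least 40%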;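 also: mutant grown at 25 °C; 0% = DMSO wells with yeast and 100% = wells holding no yeast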
TIM10 inh = growth inhibitors of TIM10 yeast strain; S. cerevisiae TIM10 strain growth, BacTiter-Glo luminescence, 24 h; inhibition, % at 10 µM; 330,000 tested, 1.4% active;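 active = inhibition of 40% or more at the single tested concentration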;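 also: wild-type TIM10 isogenic control strain grown at permissive 25 °C; 0% = DMSO yeast wells and 100% = minimal medium wells without yeast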
ATG4B inh = ATG4B (human) cysteine protease inhibition; 340,000 tested, 0.51% active; Q9Y4P1; inhibition, % at 8.33 µM; ATG4B cleavage of LC3-PLA2, NBD-HPC fluorescence, 1 h; in the data active = inhibition above about 40%
Target sequence (Q9Y4P1 whole entry, looked up): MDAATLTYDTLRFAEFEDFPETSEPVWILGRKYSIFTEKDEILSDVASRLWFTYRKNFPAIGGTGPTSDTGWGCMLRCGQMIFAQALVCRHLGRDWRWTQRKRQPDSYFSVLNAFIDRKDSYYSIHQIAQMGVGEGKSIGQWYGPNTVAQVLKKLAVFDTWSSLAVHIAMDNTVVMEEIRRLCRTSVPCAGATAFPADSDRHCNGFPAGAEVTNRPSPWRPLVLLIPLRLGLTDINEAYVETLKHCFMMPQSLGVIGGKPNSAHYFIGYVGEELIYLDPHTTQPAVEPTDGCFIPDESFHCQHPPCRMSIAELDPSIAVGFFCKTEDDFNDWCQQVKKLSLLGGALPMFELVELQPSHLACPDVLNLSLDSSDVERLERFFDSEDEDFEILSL
* = called active by the depositor.

For Cc1ccc(C2=CC(c3ccc(N(C)C)cc3)n3nnnc3N2)cc1 (stereo not drawn) the results were hIAP act 0.77, hIAP block 24, mIAP inh -11, mIAP activ 1.1, NALP3 yeast inh 11, tim10-1 inh -3, TIM10 inh -12 and ATG4B inh 1.
Screening CCc1ccc(C(=O)CSC2=C(C#N)C(c3ccco3)C(C(C)=O)=C(C)N2)cc1 (stereo not drawn) returned hIAP act 0.81, hIAP block 18, mIAP inh 16, mIAP activ 0.84, NALP3 yeast inh 30, tim10-1 inh 28 and TIM10 inh 25.
For Cc1ccc2oc3c(c(=O)c2c1)C(c1cccc(Cl)c1)N(CCCN1CCOCC1)C3=O (stereo not drawn) the results were hIAP act 0.92, hIAP block 8, mIAP inh -15, mIAP activ 1.2, NALP3 yeast inh 10, tim10-1 inh 9, TIM10 inh 2 and ATG4B inh -6.
For CCOc1ccc(C2C(C(=O)OC)=CN(CCOC)C=C2C(=O)OC)cc1 the results were hIAP act 1, hIAP block -2, mIAP inh 1, mIAP activ 0.99, NALP3 yeast inh -5, tim10-1 inh 5, TIM10 inh 6 and ATG4B inh -4.
For Cc1ccc2cc3c(NC(=O)C(C)C)nn(C)c3nc2c1 the results were hIAP act 1.1, hIAP block -7, mIAP inh -10, mIAP activ 1.1, NALP3 yeast inh 24, tim10-1 inh 24, TIM10 inh 13 and ATG4B inh -3.
For Cn1c(=O)c2c(ncn2C)n(C)c1=O the results were hIAP act 0.88, hIAP block 12, mIAP inh 7, mIAP activ 0.93, NALP3 yeast inh 8, tim10-1 inh 17, TIM10 inh 5 and ATG4B inh 2.
Cc1cc2c(C)cc(=O)oc2c2c1NCCC2 was read as hIAP act 1.2, hIAP block -16, mIAP inh 18, mIAP activ 0.82, NALP3 yeast inh 15, tim10-1 inh 21, TIM10 inh 8 and ATG4B inh -1.
For COC1=CC(=O)C[C@@H](C)[C@]12Oc1c(Cl)c(OC)cc(OC)c1C2=O the results were hIAP act 0.94, hIAP block 6, mIAP inh -4, mIAP activ 1, NALP3 yeast inh 16, tim10-1 inh 8, TIM10 inh 0 and ATG4B inh 1.
`CN1CC=C2C(C#N)=C(N)C(C#N)(C#N)C(CCc3ccccc3)C2C1` (stereo not drawn) gave hIAP act 0.91, hIAP block 9, mIAP inh 9, mIAP activ 0.91, NALP3 yeast inh 5, tim10-1 inh 1, TIM10 inh -2 and ATG4B inh -10.
For Cn1c(C(C#N)C(=O)c2ccco2)nc2ccccc21 (stereo not drawn) the results were hIAP act 1.2, hIAP block -16, mIAP inh -7, mIAP activ 1.1, NALP3 yeast inh 9, tim10-1 inh 32, TIM10 inh 40 and ATG4B inh 1.
Screening CCN1CCc2c(sc3c2c(NCc2ccco2)nc2nnnn23)C1 returned hIAP act 1, hIAP block 0, mIAP inh 7, mIAP activ 0.93, NALP3 yeast inh -4, tim10-1 inh 21, TIM10 inh 10 and ATG4B inh 1.
`CCOC(=O)c1c(N)n(CCOC(=O)c2cccs2)c2nc3ccccc3nc12` gave hIAP act 1, hIAP block -3, mIAP inh 8, mIAP activ 0.92, NALP3 yeast inh 13, tim10-1 inh -11, TIM10 inh 8 and ATG4B inh -26.
For N#CC1=C(N)Oc2cc3c(cc2C1c1ccc(Cl)cc1)OCO3 (stereo not drawn) the results were hIAP act 0.84, hIAP block 16, mIAP inh 4, mIAP activ 0.96, NALP3 yeast inh 12, tim10-1 inh 43*, TIM10 inh -11 and ATG4B inh 2.
For CN1CCc2c(sc3c2C(=O)NC(c2ccco2)N3)C1 (stereo not drawn) the results were hIAP act 0.86, hIAP block 14, mIAP inh 14, mIAP activ 0.86, NALP3 yeast inh -5, tim10-1 inh 6, TIM10 inh 6 and ATG4B inh -1.
O=C1c2cccc3cccc(c23)N1CN1CCN(c2ccccn2)CC1 was read as hIAP act 1, hIAP block -1, mIAP inh -2, mIAP activ 1, NALP3 yeast inh 0, tim10-1 inh 4, TIM10 inh -16 and ATG4B inh 0.
`Cn1c(=O)c(NCCO)c2c3c(cccc31)C(=O)c1ccccc1-2` gave hIAP act 0.87, hIAP block 13, mIAP inh -23, mIAP activ 1.2, NALP3 yeast inh 12, tim10-1 inh 23, TIM10 inh 23 and ATG4B inh inactive.
CCCC(=O)c1cc(F)c(N2CCN(C(=O)OCC)CC2)cc1C was read as hIAP act 1.2, hIAP block -16, mIAP inh 3, mIAP activ 0.97, NALP3 yeast inh 15, tim10-1 inh 28, TIM10 inh 2 and ATG4B inh -13.
O=c1sc(N2CCN(c3ccccc3F)CC2)nc2ccsc12 was read as hIAP act 0.81, hIAP block 20, mIAP inh 9, mIAP activ 0.91, NALP3 yeast inh 14, tim10-1 inh -1, TIM10 inh -13 and ATG4B inh -9.
For CCN(CC)S(=O)(=O)c1ccc2c3c(cccc13)C(=O)N2 the results were hIAP act 0.84, hIAP block 16, mIAP inh -8, mIAP activ 1.1, NALP3 yeast inh 5, tim10-1 inh 25, TIM10 inh -15 and ATG4B inh -6.
`CC(C)OC(=O)CCCN1C(=O)c2ccc(N)cc2C1=O` gave hIAP act 0.98, hIAP block 2, mIAP inh -8, mIAP activ 1.1, NALP3 yeast inh 32, tim10-1 inh 5, TIM10 inh -3 and ATG4B inh -4.
COc1ccc2noc3c2c1C(=O)c1ccccc1-3 was read as hIAP act 0.71, hIAP block 29, mIAP inh 16, mIAP activ 0.84, NALP3 yeast inh 5, tim10-1 inh 61*, TIM10 inh 39 and ATG4B inh -47.
Screening COc1cccc(Cn2c(=S)[nH]c3ccc(N4CCOCC4)cc3c2=O)c1 returned hIAP act 1, hIAP block -4, mIAP inh -4, mIAP activ 1, NALP3 yeast inh 9, tim10-1 inh 30, TIM10 inh 11 and ATG4B inh 14.
Screening CCC(=Nc1ccc(N)cc1)C1=C(O)C(C(=O)OC)C(C)(C)CC1=O (stereo not drawn) returned hIAP act 1.1, hIAP block -8, mIAP inh 16, mIAP activ 0.84, NALP3 yeast inh 7, tim10-1 inh -5, TIM10 inh 8 and ATG4B inh 0.
`COc1ccccc1CN(Cc1cc2cc(C)ccc2[nH]c1=O)Cc1nnnn1CC1CCCO1` (stereo not drawn) gave hIAP act 1.2, hIAP block -16, mIAP inh -18, mIAP activ 1.2, NALP3 yeast inh -32, tim10-1 inh 7, TIM10 inh 6 and ATG4B inh -9.

Some of these compounds in order of molar mass, ascending:
COc1ccc2noc3c2c1C(=O)c1ccccc1-3 was read as hIAP act 0.71, hIAP block 29, mIAP inh 16, mIAP activ 0.84, NALP3 yeast inh 5, tim10-1 inh 61*, TIM10 inh 39 and ATG4B inh -47.
For CN1CCc2c(sc3c2C(=O)NC(c2ccco2)N3)C1 (stereo not drawn) the results were hIAP act 0.86, hIAP block 14, mIAP inh 14, mIAP activ 0.86, NALP3 yeast inh -5, tim10-1 inh 6, TIM10 inh 6 and ATG4B inh -1.
For N#CC1=C(N)Oc2cc3c(cc2C1c1ccc(Cl)cc1)OCO3 (stereo not drawn) the results were hIAP act 0.84, hIAP block 16, mIAP inh 4, mIAP activ 0.96, NALP3 yeast inh 12, tim10-1 inh 43*, TIM10 inh -11 and ATG4B inh 2.
CCCC(=O)c1cc(F)c(N2CCN(C(=O)OCC)CC2)cc1C was read as hIAP act 1.2, hIAP block -16, mIAP inh 3, mIAP activ 0.97, NALP3 yeast inh 15, tim10-1 inh 28, TIM10 inh 2 and ATG4B inh -13.
O=c1sc(N2CCN(c3ccccc3F)CC2)nc2ccsc12 was read as hIAP act 0.81, hIAP block 20, mIAP inh 9, mIAP activ 0.91, NALP3 yeast inh 14, tim10-1 inh -1, TIM10 inh -13 and ATG4B inh -9.
Screening COc1cccc(Cn2c(=S)[nH]c3ccc(N4CCOCC4)cc3c2=O)c1 returned hIAP act 1, hIAP block -4, mIAP inh -4, mIAP activ 1, NALP3 yeast inh 9, tim10-1 inh 30, TIM10 inh 11 and ATG4B inh 14.

The list goes on:
COc1ccc(C2=CC(c3ccc(OC)c(OC)c3)n3nnnc3N2)c(OC)c1 (stereo not drawn) was read as hIAP act 0.89, hIAP block 11, mIAP inh 8, mIAP activ 0.92, NALP3 yeast inh 3, tim10-1 inh 19, TIM10 inh 21 and ATG4B inh -2.
Screening O=C(NCc1ccc2c(c1)OCO2)C1CC(=O)N(C2CCCC2)C1 (stereo not drawn) returned hIAP act 1, hIAP block 0, mIAP inh -6, mIAP activ 1.1, NALP3 yeast inh 11, tim10-1 inh 2, TIM10 inh -12 and ATG4B inh -6.
`CCOc1cc(-c2cc(-c3ccc(N)cc3)nc(N)c2C#N)ccc1O` gave hIAP act 0.99, hIAP block 1, mIAP inh -11, mIAP activ 1.1, NALP3 yeast inh 10, tim10-1 inh 41*, TIM10 inh 18 and ATG4B inh -11.
`O=c1c2cc(N3CCOCC3)ccc2[nH]c(=S)n1CCN1CCCC1` gave hIAP act 1, hIAP block -3, mIAP inh 10, mIAP activ 0.9, NALP3 yeast inh 0, tim10-1 inh 10, TIM10 inh 0 and ATG4B inh -4.
For O=C(c1cc2nc(-c3ccco3)cc(C(F)(F)F)n2n1)N1CCc2ccccc2C1 the results were hIAP act 0.74, hIAP block 26, mIAP inh 8, mIAP activ 0.92, NALP3 yeast inh 33, tim10-1 inh 13, TIM10 inh -1 and ATG4B inh 11.
Screening CCOC(=O)c1sc2nc(-c3ccco3)c3c(c2c1N)CC(C)(C)OC3 returned hIAP act 1.3, hIAP block -25, mIAP inh 40, mIAP activ 0.6, NALP3 yeast inh 12, tim10-1 inh 18, TIM10 inh 23 and ATG4B inh 5.
For Cc1cc2c(c(=O)n1Cc1cccnc1)C(Cc1ccccc1)C(C#N)=C(N)O2 (stereo not drawn) the results were hIAP act 1, hIAP block -2, mIAP inh -2, mIAP activ 1, NALP3 yeast inh 7, tim10-1 inh -6, TIM10 inh -2 and ATG4B inh -5.
Screening N=c1c(S(=O)(=O)c2ccccc2)cc2c(=O)n3ccccc3nc2n1CC1CCCO1 (stereo not drawn) returned hIAP act 0.89, hIAP block 11, mIAP inh -1, mIAP activ 1, NALP3 yeast inh 15, tim10-1 inh 10, TIM10 inh 24 and ATG4B inh 8.
For O=C1CCNc2cc3ccccc3cc21 the results were hIAP act 1.3, hIAP block -33, mIAP inh 14, mIAP activ 0.86, NALP3 yeast inh 21, tim10-1 inh 32, TIM10 inh 42* and ATG4B inh -1.
CN(C)CCSc1nc(N)c2c3c(sc2n1)COC(C)(C)C3 was read as hIAP act 1.1, hIAP block -9, mIAP inh 5, mIAP activ 0.95, NALP3 yeast inh 10, tim10-1 inh -6, TIM10 inh -5 and ATG4B inh 2.
Cc1cccc(N2C(=O)c3cccc4c(N(C)CCO)ccc(c34)C2=O)c1 was read as hIAP act 1.2, hIAP block -18, mIAP inh 2, mIAP activ 0.98, NALP3 yeast inh 12, tim10-1 inh 8, TIM10 inh 14 and ATG4B inh -14.
CCOC(=O)N1CCN(C(=O)Nc2ccc3nc(-c4ccccn4)c(-c4ccccn4)nc3c2)CC1 was read as hIAP act 1.7, hIAP block -66, mIAP inh 8, mIAP activ 0.92, NALP3 yeast inh 19, tim10-1 inh 4, TIM10 inh 3 and ATG4B inh -3.
`CCC(O)c1cc2c(cc1NC(=O)c1cccs1)OCCO2` (stereo not drawn) gave hIAP act 0.87, hIAP block 13, mIAP inh 7, mIAP activ 0.93, NALP3 yeast inh 4, tim10-1 inh 20, TIM10 inh 10 and ATG4B inh 2.
`CCOC(=O)C1C(=O)C(C(=O)OCC)C(c2cccnc2)NC1c1cccnc1` (stereo not drawn) gave hIAP act 1, hIAP block -2, mIAP inh -7, mIAP activ 1.1, NALP3 yeast inh 11, tim10-1 inh 3, TIM10 inh 0 and ATG4B inh 2.
CN1CCCN(C(=O)Cc2c(Cl)cccc2Cl)c2nc3ccccc3nc21 was read as hIAP act 0.96, hIAP block 4, mIAP inh 10, mIAP activ 0.9, NALP3 yeast inh 14, tim10-1 inh 30, TIM10 inh 12 and ATG4B inh -15.

An excerpt; the hit share may differ from the screen's.
